PABP FP inh: blocks human PABP binding to poly(A) RNA | 290,000 compounds, 1% hits | fluorescence polarization | AID 2014 | inhibition, % at 35 µM;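 active = 50% or more with normal probe brightness, or confirmed in later tests; inconclusive = above 50% with abnormal brightness, or retests that disagree; inactive = below 50% or failed in later tests; about a fifth of its hits are not listed in these tables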;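 also: calls also rest on retests at 20 µM and on dose response follow-up; controls were probe without protein and protein plus probe with vehicle; some compounds called inactive have numbers as strong as hits; many hits fall short of the cut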
Target sequence (P11940 whole entry, looked up): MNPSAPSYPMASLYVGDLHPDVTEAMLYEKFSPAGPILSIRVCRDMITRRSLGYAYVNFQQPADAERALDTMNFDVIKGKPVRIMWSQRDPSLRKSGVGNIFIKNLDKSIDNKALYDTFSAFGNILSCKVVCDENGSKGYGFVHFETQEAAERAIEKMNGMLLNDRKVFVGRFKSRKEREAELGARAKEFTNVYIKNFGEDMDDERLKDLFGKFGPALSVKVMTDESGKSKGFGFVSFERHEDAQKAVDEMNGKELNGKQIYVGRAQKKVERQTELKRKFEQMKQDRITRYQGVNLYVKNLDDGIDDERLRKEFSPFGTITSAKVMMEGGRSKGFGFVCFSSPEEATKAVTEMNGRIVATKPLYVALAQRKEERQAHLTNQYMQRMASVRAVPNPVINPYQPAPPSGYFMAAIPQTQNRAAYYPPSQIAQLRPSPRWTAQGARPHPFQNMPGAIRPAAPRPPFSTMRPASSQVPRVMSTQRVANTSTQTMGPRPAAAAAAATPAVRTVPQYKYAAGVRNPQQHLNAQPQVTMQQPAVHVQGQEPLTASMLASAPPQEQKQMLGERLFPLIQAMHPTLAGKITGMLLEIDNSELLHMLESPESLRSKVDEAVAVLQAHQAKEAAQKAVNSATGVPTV
eIF4H inh: inhibitors of RNA binding by human eIF4H; Q15056; eIF4H fluorescence polarization binding assay; inhibition, % at 35 µM; 290,000 compounds, 0.94% hits;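 active = 50% or more with normal probe brightness, or confirmed in later tests; inconclusive = above 50% with abnormal brightness, or retests that disagree; inactive = below 50% or failed in later tests; about a fifth of its hits are not listed in these tables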;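 also: calls also rest on retests at 20 µM and on dose response follow-up; 0% = protein and probe with vehicle and 100% = probe without protein; strong numbers were not always called active; many hits fall short of the cut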
CSC inhib: cancer stem cell inhibition; cancer stem cell-like cells viability, luminescence; inhibition, % at 7.5 µM; 300,000 compounds, 1.1% hits;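 active = mean at 75% or more and at least half the replicates too; inconclusive = mean and replicates disagree; tested in HMLE shEcad cells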;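 also: 0% = median of negative and 100% = median of positive control wells; the first replicate is given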
MT1-MMP act inh: blocks activation of human MT1-MMP; HT1080 RFP-PRO-GFP cells, GFP/RFP ratio fluorescence, overnight; percent of plate control window, DMSO zero; AID 651647; 360,000 compounds, 0.061% hits; GFP/RFP ratio change, % at 20 µM; P50281;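 active = GFP/RFP ratio change of at least 30% with cell ATP level not reduced by more than half and red fluorescence within 50% of control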; also: strong numbers were not always called active
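system = RFP-PRO-GFP reporter HT1080 cells | dosing = 20 µM single dose, 1% DMSO | timing = overnight cell settling, then overnight compound exposure, 37 °C, 5% CO2 | read-out basis = GFP/RFP fluorescence ratio | controls = DMSO and RFP-L50D-GFP cell wells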
Rce1 inh: yeast Ras-converting enzyme inhibition | Q03530 | yeast membranes, quenched prenylated peptide cleavage fluorescence | calls only | 290,000 compounds, 0.27% hits | AID 2563;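 active = fall in fluorescence gain of 50% or more versus controls, with final raw signal at or below 3038400; inconclusive = same 50% fall but final raw signal above 3038400; inactive = fall in fluorescence gain under 50%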;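 also: plate controls were neutral control wells for no effect and wells lacking membranes for full effect; tested at 10 µM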
Target sequence (Q03530 whole entry, looked up): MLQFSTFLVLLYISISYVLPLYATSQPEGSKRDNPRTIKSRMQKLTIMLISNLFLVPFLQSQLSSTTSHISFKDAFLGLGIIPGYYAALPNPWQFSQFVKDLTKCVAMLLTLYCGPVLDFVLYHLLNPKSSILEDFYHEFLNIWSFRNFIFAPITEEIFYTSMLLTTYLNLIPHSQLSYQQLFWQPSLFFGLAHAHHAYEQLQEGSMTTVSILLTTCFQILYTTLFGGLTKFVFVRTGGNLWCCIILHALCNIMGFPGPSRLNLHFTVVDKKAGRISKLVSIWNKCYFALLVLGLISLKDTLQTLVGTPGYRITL
HIV Env fusion: blocks HIV Env-driven cell-cell fusion | HeLa-JRFL Env/CEM21 cell fusion, luciferase | inhibition, % at 12.3 µM | 360,000 compounds, 1.1% hits | AID 651610;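 active = mean replicate inhibition score of at least 50 and every replicate individually at or above 50; inconclusive = only one of the two criteria met; inactive = mean below 50 and not all replicates reaching 50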;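 also: 0% = plate neutral controls and 100% = maraviroc near 300 nM; one replicate is shown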
Yeast UUG start: yeast start codon fidelity modulation; S. cerevisiae UUG-firefly luciferase reporter, luminescence/redox ratio; activity score, % at 18.7 µM; 350,000 compounds, 0.13% hits; AID 602363;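 active = replicate mean at a twofold rise or more, about +100% in these data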;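 also: firefly luciferase made from a UUG start codon reports start codon fidelity; reporter light over untreated wells divided by growth signal over untreated wells; some hits fall short of that in this replicate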
eIF4H inh retest: further read-out of eIF4H inh, marked with its call; inhibition, %; compound at 20 µM; confirmation average;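 mean of two retest wells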
PABP FP inh retest: also measured in PABP FP inh; calls as there; inhibition, %; compound at 20 µM; confirmation repeats;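 mean of two retest wells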
MT1-MMP act inh RFP: also measured in MT1-MMP act inh; calls as there; RFP signal change, %; measured here: RFP expression control read;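 0 = vehicle wells; hits needed this value within 50% of zero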
* hit, by the source's call; i = inactive; ? = inconclusive; / = not tested or not shown; & = joins results of further samples; [ ] = another dose, or the depositor's remark.

The first 6 entries, to show the layout:
SMILES	PABP FP inh	eIF4H inh	CSC inhib	MT1-MMP act inh	MT1-MMP act inh RFP	Rce1 inh	HIV Env fusion	Yeast UUG start	others
CC(=O)Nc1ccc(S(=O)(=O)NC(C)c2ccncc2)cc1 (stereo unspecified)	/	/	/	6	-3	/	?	3
CCOC(=O)C1CCN(S(=O)(=O)c2ccc(OC)c(C(=O)N3CCCCCC3)c2)CC1	0	-8	-6	1	-1	i	0	-4
CCn1c(=S)sc2c(=O)n(CC(=O)Nc3cccc(Br)c3)c(C)nc21	-14	-20	11	6	0	i	28	-8
O=C(CCc1nnc(CCCc2ccccc2)o1)NCCCC1CCCC1	-1	-9	-4	1	-3	i	-17	/
COc1ccc(Cc2c(-c3ccc(F)cc3)nc3c(C)cc(Br)cn23)c(C)c1	/	/	/	-8	0	/	-53	16
COc1ccc(C(=O)NNc2cc(C)nc(NNC(=O)c3ccc(OC)cc3)n2)cc1	12	-8	3	1	1	i	-4	/

The whole of this part, from the start:
SMILES	PABP FP inh	eIF4H inh	CSC inhib	MT1-MMP act inh	MT1-MMP act inh RFP	Rce1 inh	HIV Env fusion	Yeast UUG start	others
CC(=O)Nc1ccc(S(=O)(=O)NC(C)c2ccncc2)cc1 (stereo unspecified)	/	/	/	6	-3	/	?	3
CCOC(=O)C1CCN(S(=O)(=O)c2ccc(OC)c(C(=O)N3CCCCCC3)c2)CC1	0	-8	-6	1	-1	i	0	-4
CCn1c(=S)sc2c(=O)n(CC(=O)Nc3cccc(Br)c3)c(C)nc21	-14	-20	11	6	0	i	28	-8
O=C(CCc1nnc(CCCc2ccccc2)o1)NCCCC1CCCC1	-1	-9	-4	1	-3	i	-17	/
COc1ccc(Cc2c(-c3ccc(F)cc3)nc3c(C)cc(Br)cn23)c(C)c1	/	/	/	-8	0	/	-53	16
COc1ccc(C(=O)NNc2cc(C)nc(NNC(=O)c3ccc(OC)cc3)n2)cc1	12	-8	3	1	1	i	-4	/
CCCc1cc(C(=O)Nc2sc3c(c2C(=O)OCC)CCCC3)no1	-10	-4	-9	2	4	i	-37	-33
O=C(CSc1nnc(Cc2ccccc2)o1)Nc1ccccc1	-2	-7	-11	-1	2	i	0	/
COC(=O)c1cc2c(n(-c3ccccc3)c1=O)CCCC2=O	/	/	/	3	3	/	-82	-15
O=C1C=C(Nc2cccc(O)c2)CC(c2ccco2)C1 (stereo unspecified)	3	1	-14	-14	11	i	10	-6
Cc1c(NC(=O)c2ccccc2NS(=O)(=O)c2ccc(Br)cc2)c(=O)n(-c2ccccc2)n1C	6	3	1	3	3	i	-24	/
Cc1cc(NC(=O)CSCc2ccccc2C)no1	9	8	-6	1	3	i	-3	/
Cc1cc(NC(=O)C2CCCN2C(=O)Nc2c(C)cccc2C)ccc1-n1cnnn1 (stereo unspecified)	-8	7	-15	0	-2	i	/	2
O=c1c2ccccc2cnn1-c1nc2ccccc2[nH]1	-4	8	/	5	4	i	63*	/
C=CCNC(=O)c1sc(-c2ccccc2)nc1C	-5	-4	-2	3	2	i	-8	/
CCCNc1nc2ccccc2n2c(C)nnc12	-4	6	-2	13	10	i	24	-18
O=C(Cn1c(CO)nc2ccccc21)NCCc1ccc(F)cc1	-6	-6	5	-2	0	i	-4	-20
Cc1oc2c(c(C)cc3oc(=O)c(CC(=O)N[C@@H](C)C(=O)O)c(C)c32)c1C	6	-8	4	-1	-1	i	9	5
Cc1cnc2c(N)cc(C)c(C)c2c1	/	/	/	0	-1	/	77*	-1
Cc1ccc(NCc2cccnc2)c(Br)c1	-3	1	-19	2	3	i	-14	/
CCCC1CCC(=C(C#N)C(N)=O)CC1 (stereo unspecified)	-5	4	0	1	3	i	/	-10
Cc1noc(C)c1NC(=O)N(C)C[C@H]1Oc2c(NC(=O)Nc3ccccc3)cccc2C(=O)N([C@H](C)CO)C[C@@H]1C	/	/	-7	-1	4	/	-12[16.7 µM]	-4&6
OC(CN1CCN(c2ccccn2)CC1)Cn1c2ccccc2c2ccccc21 (stereo unspecified)	-2	19	23	4	-7	i	/	14
CCOC(=O)c1cc2c(C)n(-c3ccc(C)cc3)c(C)c2ccc1=O	15	24	12	-12	-16	i	-229	-10
COc1ccc(NC(=O)CN2C(=O)N(C)Cc3ccccc32)c(C)c1	5	-11	-11	0	-3	i	13	/
New compounds follow:
SMILES	PABP FP inh	eIF4H inh	CSC inhib	MT1-MMP act inh	MT1-MMP act inh RFP	Rce1 inh	HIV Env fusion	Yeast UUG start	others
Cc1ccccc1-c1nc(CN2CCC(C(=O)NCCC3=CCCCC3)CC2)c(C)o1	5	12	-12	7	-7	i	73*	1
COc1cc2c(cc1OC)C(c1cccc(Br)c1)CC(=O)N2 (stereo unspecified)	-2	-2	-16	5	-7	i	2	-23
COc1ccccc1-c1nc2ccccc2nc1-c1ccccc1OC	1	-6	/	-1	-2	i	-17	/
CCOC(=O)C1(CCOC)CCN(Cc2nc(-c3cccs3)oc2C)CC1	-3	4	7	8	4	i	6	-3
O=C(COC(=O)c1ccco1)NCCc1ccc(Cl)cc1	/	/	1	2	4	/	/	-9
CN1CCN(C(=O)c2ccc3c(c2)N(Cc2ccc(Cl)cc2)C(=O)c2ccccc2S3=O)CC1 (stereo unspecified)	-8	-5	-9	3	9	i	7	7
CCn1cc(C(C)NC(=O)Nc2ccc3c(c2)OCO3)c(C)n1 (stereo unspecified)	-2	-7	-9	2	6	i	4	-16
CC(=O)c1ccc(N2CCN(c3ccccc3O)CC2)c([N+](=O)[O-])c1	0	-11	6	2	-4	i	-26	-5
CC(=O)Oc1ccc(/C=C(\NC(=O)c2ccco2)C(=O)NCc2ccco2)cc1	9	-7	-8	2	2	i	5	-6
CCC(=O)c1ccc(O)c(CC=C(C)C)c1	7	-8	/	-18	-13	i	/	-9
Cc1ccnc(NC(=O)COc2ccccc2[N+](=O)[O-])c1	10	4	/	-1	3	/	-25	/
CCOc1ccccc1C1C(C#N)=C(N)Oc2n[nH]c(CC)c21 (stereo unspecified)	-5	-7	-3	2	3	i	/	-14
CN(CCC#N)C(=O)c1cc2c(Cl)nc3ccccc3c2s1	1	-3	-6	-2	-2	i	2	21
O=C(O)CC/C(=N/NC(=O)CNC(=O)Cc1ccc(Cl)cc1)c1ccccc1	0	2	-5	1	6	i	14	/
COc1ccc(C2=NN(C(=O)c3ccccc3)C(c3ccccc3)C2)c(O)c1 (stereo unspecified)	0	-11	-13	2	1	i	8	-20
O=C(c1ccoc1)N1CCC2(CC1)Oc1ccc(F)cc1C(=O)C21CC(c2ccc(Cl)cc2)=NO1 (stereo unspecified)	7	4	1	7	-8	i	-178	-8
COc1ccc(NC(=S)NC(=O)c2ccc(Br)o2)cc1	-14	6	-27	-3	1	i	-70	-5
COc1cccc(Nc2ncc(C#N)c(N)n2)c1	-2	-9	-1	-9	-3	i	-1	-9
CC(=O)c1cc2c(cc1NC(=O)C1CCC1)OCO2	0	-9	/	2	6	i	3	/
Cc1ccsc1C=Nc1ccc(O)cc1	28	51*	16	9	13	i	/	-20	eIF4H inh retest=81*;PABP FP inh retest=32
O=C(CSc1nc2ccccc2s1)NCc1ccc2c(c1)OCO2	26	76	-1	1	4	i	15	/	eIF4H inh retest=46;PABP FP inh retest=22
CC(=O)c1ccc(N2CCN(C(=O)Nc3ccc(C(C)C)cc3)CC2)cc1	-9	2	24	2	-22	i	26	/
O=C(c1ccc(C#CC2(O)CCCCC2)cc1)N1CCN(Cc2ccccc2)CC1	-9	-3	-5	13	-5	i	/	14
COc1ccccc1N1CCN(C2CCCN(C(=O)c3ccoc3)C2)CC1 (stereo unspecified)	19	10	8	1	2	i	-8	-20
COc1cc(C(=O)NNC(=O)c2cc(=O)[nH]c3ccccc23)cc(OC)c1OC	/	/	-16	-4	4	i	20	/
Other records follow.
SMILES	PABP FP inh	eIF4H inh	CSC inhib	MT1-MMP act inh	MT1-MMP act inh RFP	Rce1 inh	HIV Env fusion	Yeast UUG start	others
Cc1ccc(S(=O)(=O)N2C[C@H]3[C@H]4C(=O)N(c5ccccc5)C(=O)[C@H]4C[C@H](OC(=O)Nc4cccs4)[C@@]3(O)C2)cc1	/	/	/	5	2	/	2	-4
CCN(CC)CCNC(=O)c1ccc(NC(=O)Cc2cccc3ccccc23)cc1	2	5	-4	-1	-5	i	5	-6
CCc1ccc(-n2nnnc2SCC(=O)Nc2ccc(NC(C)=O)cc2)cc1	4	-5	-2	-3	-10	i	1	-3
COc1ccccc1CNC(=O)COC(=O)C1CCN(S(=O)(=O)c2ccccc2)CC1	/	/	-8	2	1	i	1	/
COc1ccc(CC(=O)N2CCN(c3cccc(C)c3C)CC2)cc1	6	3	-1	0	-5	i	-66	4
Cc1cccc(Oc2cc(NC(=O)Cn3cnc([N+](=O)[O-])n3)cc([N+](=O)[O-])c2)c1	-2	-2	32	10	-3	/	19	/
CCOc1ccc(N(CC(=O)Nc2ccccc2OC)S(=O)(=O)c2ccccc2)cc1	3	-7	70	12	-6	i	-180	-13
CC(CN(C)C)CN1c2ccccc2CCc2ccccc21 (stereo unspecified)	0	-18	1	-6	-4	i	-13	13
Cc1ccc(C(=O)NC(=S)Nc2ccc(N3CCOCC3)cc2)c(C)c1	-3	-2	36	1	-6	i	7	-12
O=C(CCN1C(=O)c2ccncc2C1=O)NCc1ccc(Cl)cc1	-7	5	-3	2	4	i	-31	-15
O=C(NCc1cccc(Cl)c1)c1ccc(S(=O)(=O)N2CCCCC2)cc1	/	/	/	-2	0	/	-2	-16
COc1ccc(S(=O)(=O)N/N=C\c2ccc([N+](=O)[O-])o2)c(OC)c1	13	3	2	-1	2	i	-10	-18
CC(Sc1nnc2ccccn12)C(=O)NCc1ccc2c(c1)OCO2 (stereo unspecified)	-2	-2	-11	-6	0	/	-13	/
CC1CCC(NC(=O)c2ccc(CS(=O)(=O)Cc3ccccc3F)o2)CC1 (stereo unspecified)	2	-2	0	-5	-2	i	/	2
COc1ccc(CC(=O)Nc2cc(S(C)(=O)=O)ccc2Cl)cc1S(=O)(=O)N1CCOCC1	/	/	/	-1	3	/	6	-11
CSc1ccccc1NC(=O)COC(=O)CCc1ccccc1	-11	-11	-3	-5	-3	/	15	6
CC(=O)NS(=O)(=O)c1ccc(NC(=S)NC(=O)C(C)(C)C)cc1	11	-6	-8	6	4	i	-19	/
O=C(NCCN1CCNC1=O)c1ccc2sc([C@@H]3O[C@H](CO)[C@H](O)[C@H](O)[C@H]3O)nc2c1	/	/	/	-4	-2	/	-6	-10

Part of the list above in order of heavy-atom count, ascending.
SMILES	PABP FP inh	eIF4H inh	CSC inhib	MT1-MMP act inh	MT1-MMP act inh RFP	Rce1 inh	HIV Env fusion	Yeast UUG start	others
Cc1cnc2c(N)cc(C)c(C)c2c1	/	/	/	0	-1	/	77*	-1
COC(=O)c1cc2c(n(-c3ccccc3)c1=O)CCCC2=O	/	/	/	3	3	/	-82	-15
CCn1cc(C(C)NC(=O)Nc2ccc3c(c2)OCO3)c(C)n1 (stereo unspecified)	-2	-7	-9	2	6	i	4	-16
COc1ccc(CC(=O)Nc2cc(S(C)(=O)=O)ccc2Cl)cc1S(=O)(=O)N1CCOCC1	/	/	/	-1	3	/	6	-11
